# High-throughput results from PubChem BioAssay.
# StopGo FLuc = lowers the firefly signal of an FMDV 2A StopGo reporter. HEK cells with a luciferase reporter of 2A StopGo recoding. Potency, µM (titrated, usually from 57.5 µM), for the others: top-dose signal change, negative = less light. 120,000 compounds, 0.23% hits. AID 1745856; active = well fitted falling curve with a large enough effect; inconclusive = small, poorly fitted or top-dose-only effect; inactive = no such curve, though single readings can be large or run the other way; further: nearly all actives have a fitted effect of over 60% in size; overnight with compound
# 2A Renilla = FMDV 2A StopGo reporter, Renilla signal | HEK cells with a luciferase reporter of 2A StopGo recoding | Potency, µM (highest dose often 57.5 µM), inactives show at the highest dose signal change, negative = less light | 120,000 compounds, 0.32% hits; active means well fitted falling curve with a large enough effect; inconclusive means small, poorly fitted or top-dose-only effect; inactive means no such curve, though single readings can be large or run the other way; further: nearly all actives have a fitted effect of over 55% in size; overnight with compound
# Starred values were filed as active, the others as inactive; ? = inconclusive; [ ] = another dose, or the depositor's remark. On the % scale 0 is the no-effect control and ±100 the full control effect; potency means the concentration at half of the fitted maximal effect. Only part of the results is shown; count on the stated rates, not on these rows.
SMILES,StopGo FLuc,2A Renilla
C#CCOC(=O)CCC(=O)NCCCCCCCCCCCC,-6%,4%
COc1cc(NS(=O)(=O)c2cccc(Br)c2)c(C(=O)O)cc1OC,35%[activator],12%
O=c1cc(CN2CCCN(Cc3ccc(C(F)(F)F)cc3)CC2)nc2ccc(Cl)cn12,0%,32%[activator]
CC(C)C(=O)NC1CCCN(C(=O)c2cc(=O)[nH]c3ccccc23)C1 (stereo not given),-1%,0%
CCOC(=O)C(C)(C)Oc1ccc(Cl)cc1,13%[11.5 µM],12%
O=C(c1ccccc1)n1nc(-c2ccc(Cl)cc2)nc1NCc1ccco1,389%[activator],80%[activator]
CCCN(Cc1ccc(C#N)cc1)C(=O)C1=NNC(=O)CC1,0%,4%
CC(C)CCn1cnc2c1c(=O)n(CC(=O)N1CCCc3ccccc31)c(=O)n2Cc1ccccc1,-18%,-7%
CCCCn1nc(C(=O)Nc2cccc(OC)c2)c2ccccc2c1=O,17%,11%
Cn1c(=O)oc2cc(S(=O)(=O)CCC(=O)N3CCN(c4ccccc4)CC3)ccc21,-13%,-3%
CC(NC(=O)c1ccc2c(c1)sc1nc(-c3ccccc3)cn12)C12CC3CC(CC(C3)C1)C2 (stereo not given),78%[activator],6%
CCOc1ccc(NC(=O)Cn2nc3c(cc2=O)CC(C)CC3)cc1 (stereo not given),-16%,-3%
Cc1ccc2c(CC(=O)Nc3ccc(S(=O)(=O)N4CCCCC4)cc3)coc2c1C,17%,122%[activator]
O=C(CCn1nc(-c2ccc(Cl)cc2)c2ccccc2c1=O)Nc1cccc(Cl)c1,10%,53%[activator]
CCNC(=O)NC(=O)C(C)N(C)Cc1cccc(C#N)c1 (stereo not given),-8%,-6%
CCc1cccc(NC(=O)COC(=O)c2cc(C)nc3ccccc23)c1,5%,-7%
Cc1ccc(CNC(=O)c2ccccc2NC(=O)CSc2nc(C)cs2)cc1,14%,24%
CCc1ccc(NC(=O)CSc2nc(-c3ccccc3)c(C#N)c(=O)[nH]2)cc1,0%,-16%
CC(C)CCNC(=O)NC(=O)COC(=O)Cc1n[nH]c(=O)c2ccccc12,-5%,-14%
O=C(COC(=O)C1(c2ccc(F)cc2)CCCC1)Nc1cc([N+](=O)[O-])ccc1F,?,?
COC(=O)c1cccc(OC(=O)/C=C/c2ccc(-c3ccccc3)s2)c1,23%,-12%[1.06 µM]
CN(Cc1ccccc1)C(=O)c1ccc(CSc2nc3cccnc3n2Cc2ccccc2F)cc1,-21%,48%[activator]
COc1c(C)cccc1C(=O)Nc1cccc2ccc(C)nc12,6%,7%
COc1ccc(Oc2c(C)oc3cc(OS(C)(=O)=O)ccc3c2=O)cc1,13µM*,?
Cc1nc2ccccc2n1N,2%,-6%[1.06 µM]

# Reprinted from the part before: 5 entries; new compounds follow.
SMILES,StopGo FLuc,2A Renilla
COC(=O)c1cccc(OC(=O)/C=C/c2ccc(-c3ccccc3)s2)c1,23%,-12%[1.06 µM]
CN(Cc1ccccc1)C(=O)c1ccc(CSc2nc3cccnc3n2Cc2ccccc2F)cc1,-21%,48%[activator]
COc1c(C)cccc1C(=O)Nc1cccc2ccc(C)nc12,6%,7%
COc1ccc(Oc2c(C)oc3cc(OS(C)(=O)=O)ccc3c2=O)cc1,13µM*,?
Cc1nc2ccccc2n1N,2%,-6%[1.06 µM]
O=C(OCc1ccc([N+](=O)[O-])cc1)C1CC2CCCC(C1)C2=O (stereo not given),9%,-2%
COc1ccc(C(=O)Oc2cccc(C)c2)cc1Br,-6%,-13%
Cc1ccc(-c2nnc(Nc3cccc(Cl)c3)c3ccccc23)cc1S(=O)(=O)N1CCOCC1,-11%,-5%
COC(=O)c1ccc(C2C(C(=O)Nc3ccccc3)=C(C)Nc3nc4ccccc4n32)cc1 (stereo not given),7%,-7%
CCC(=O)Nc1cc(-c2nc3cc(C(C)C)ccc3o2)ccc1Cl,-6%,20%
O=C(O)CCc1ccc(-c2ccccc2)n1CC(=O)Nc1ccccc1C(F)(F)F,-12%,8%
Cc1cnc(C(=O)Oc2ccc(C#N)cc2)cn1,20%,0%
COc1ccc(C2CCCN2C(=O)Cn2cccnc2=O)cc1 (stereo not given),-1%,-5%
CC(C1CCCCC1)C(C)(CCC(=O)O)CC(=O)O (stereo not given),1%,4%
CN(Cc1ccccc1)C(=O)c1cc(=O)[nH]c2ccc(S(=O)(=O)Nc3ccc(F)cc3)cc12,-8%,215%[activator]
CCOc1ccc(OCC)c(NC(=O)CCc2nc3cccnc3n2Cc2cccs2)c1,-10%,-6%
Cc1cc(Br)ccc1NC(=O)c1c(C)oc2ncnc(N3CCCCC3)c12,-10%,13%
COc1ccc2nc(Nc3nc(-c4ccccc4)cc(=O)[nH]3)nc(C)c2c1,9%,-2%
CCCN1CCN(CCCNC(=O)Cn2nc(CC)n3c(cc4occc43)c2=O)CC1,44%[activator],-9%
Cc1ccc(S(=O)(=O)N(CC(O)Cn2c3ccccc3c3ccccc32)c2cccc(C(=O)NCCO)c2)cc1 (stereo not given),-13%,9%
Cc1cc(C(F)(F)F)nc(SCc2c(Cl)cccc2Cl)n1,-4%,0%
Cc1ccc(NC(=O)CN(C)C(=O)c2ccc3c(c2)nnn3C(C)C)cc1C,20%,-1%
CCOC(=O)c1[nH]c2c(c1Cc1ccccc1OC)C(=O)CC(c1ccc(OCC)cc1)C2 (stereo not given),-15%,45%[activator]
CCOC(=O)N1CCN(C(=O)c2cc3sccc3n2Cc2ccccc2F)CC1,?,?
NC(=O)CSc1ccc(C(F)(F)F)cn1,-1%,9%
Cc1nc2cc(-c3ccccc3)nn2c(C)c1CCC(=O)N1CCN(c2ccc(F)cc2)CC1,?,-2%
CCOC(=O)Cc1ccc(NC(=O)NC(C(=O)N2CCc3ccccc32)c2ccccc2)cc1 (stereo not given),-20%,1%
CN(C)C(=O)c1ccccc1Br,5%,2%
CSC(=Nc1cccc([N+](=O)[O-])c1)SC,0%,-8%
CCONC(=O)COc1ccc(C#N)cc1,1%,-13%

# Another view of some results above:
# Order of results: StopGo FLuc, 2A Renilla
- Cc1ccc(NC(=O)CN(C)C(=O)c2ccc3c(c2)nnn3C(C)C)cc1C
    20%, -1%
- CCOC(=O)c1[nH]c2c(c1Cc1ccccc1OC)C(=O)CC(c1ccc(OCC)cc1)C2 (stereo not given)
    -15%, 45%[activator]
- CCOC(=O)N1CCN(C(=O)c2cc3sccc3n2Cc2ccccc2F)CC1
    ?, ?
- NC(=O)CSc1ccc(C(F)(F)F)cn1
    -1%, 9%
- Cc1nc2cc(-c3ccccc3)nn2c(C)c1CCC(=O)N1CCN(c2ccc(F)cc2)CC1
    ?, -2%

# Next section
SMILES,StopGo FLuc,2A Renilla
COC(=O)c1ccc(COC(=O)c2ccc(C(C)=O)s2)cc1,35%[activator],1%
C=CCOc1ccc(/C=C/C(=O)c2ccc(OCCCCC)cc2)cc1,10%,-2%
COc1ccc(OCc2ccc(C#N)cc2)c(C(=O)O)c1,2%,9%
NC(=O)C1(N2CCCCC2)CCN(C(=O)Nc2ccc(F)cc2)CC1,-4%,-8%
COc1ccc(OC)c(CNC(=O)c2c(-c3ccc(C)cc3)nnc3ccccc23)c1,164%[activator],31%
Cc1ccc(C)c(N2CCN(C(=O)c3cc4c(=O)n(Cc5cccnc5)ccc4nc3C)CC2)c1,-24%,-10%
COc1ccc(CCNC(=O)CCc2cn(Cc3ccc(C)cc3)c3ccccc23)cc1OC,-12%,-3%
O=C(CCN1C(=O)c2ccccc2Sc2ncccc21)Nc1ccc(F)cc1F,0%,-11%
COc1cc(-c2csc(NC3CC3)n2)ccc1OC(F)F,82%[activator],?
Cc1ccc(-n2c(=O)c3cccnc3n2CC(=O)Nc2ccc(F)cc2F)cc1C,-1%,-6%
CCOC(=O)C1CCN(c2nc3ccccc3n3c(=O)n(CC(=O)Nc4ccc(C#N)cc4)nc23)CC1,7%,-8%
CC(Sc1ncnc2ccccc12)C(=O)Nc1cccc(C(F)(F)F)c1 (stereo not given),-25%,-32%
CC(C)(C)NC(=O)c1cc(-c2cccs2)nc2ccccc12,17%,7%
COc1ccccc1OCC(=O)NCC1(N(C)C)CCCCC1,9%,3%
COc1ccc(C(=O)c2sc(Nc3cccc(C(F)(F)F)c3)nc2N)cc1OC,9%,7%
S=c1sc2c(s1)SC1C3CCC(C3)C1S2 (stereo not given),10%,1%
O=c1cc(CN2CCC(Cc3ccccc3)CC2)c2cc(O)c(-c3ccccc3)cc2o1,-4%,-16%
COc1ccc(Cl)cc1NC(=O)c1cn(C2CCCC2)c(=O)c2c1c1ccccc1n2C,10%,-6%
Cn1cnc2c(=O)oc3ccc(S(=O)(=O)N4CCN(c5cccc(Cl)c5)CC4)cc3c21,-17%,-4%
CCc1cccc(-n2nnc(-c3nsc(NC(=O)c4ccc(C)cc4)n3)c2C)c1,8%,-5%
Cc1ccccc1CCNC(=O)C1CCN(c2nc3ccccc3nc2C(F)(F)F)CC1,-5%,-9%
Cc1ccc(-c2noc(CSc3nnc4ccccn34)n2)cc1,200%[activator],18%
COC(=O)c1ccccc1NC(=O)CSc1nncc2ccccc12,30%[activator],15%
O=C(c1cc(=O)c2ccccc2o1)N(Cc1ccc(Cl)cc1)Cc1ccco1,-20%,42%[activator]
CCOC(=O)c1c(S(=O)(=O)Nc2ccc(OC)c(Cl)c2)c(C)n(C)c1C,7%,234%[activator]

# (listing goes on)
SMILES,StopGo FLuc,2A Renilla
CCc1noc(-c2ccc(NC(C)c3ccccc3)c([N+](=O)[O-])c2)n1 (stereo not given),76%[activator],1%
Cc1ccccc1-c1nc2n(CC(=O)N3CCCCCC3)c(C)cc(=O)n2n1,-10%,-10%
Cc1ccc(C(O)CNC(=O)C2CCCCC2)cc1 (stereo not given),30%[activator],21%
Cc1ccc(C)c(-c2csc(NC(=O)CN(C)CC(=O)Nc3ccccc3C(F)(F)F)n2)c1,?,?
COc1ccc(C(=O)CCC(=O)Nc2cc(C)ccc2C)cc1,-10%,-7%
COc1cc(Cl)c(S(=O)(=O)NCCc2c(C)[nH]c3c(C)cccc23)cc1Cl,-6%,195%[activator]
O=C(CCc1ncc(-c2ccccc2)o1)Nc1ccc(OCC(F)(F)F)cc1,17%,-4%
CCOC(=O)c1nnc2c(-c3ccc(Cl)cc3)c(C)nn2c1C,-6%,-6%
Cc1ccc(-c2nc(C)c(CCNC(=O)c3ccco3)s2)cc1,254%[activator],6%
CCCCNC(=O)c1c(-c2ccccc2)c(-c2ccccc2)nn(C)c1=O,-9%,9%
CCOC(=O)c1c(NC(=O)CSc2cn(CCNC(=O)c3c(F)cccc3F)c3ccccc23)sc2c1CCC2,0%,3%
CCOC(=O)Cn1c(=O)n(-c2ccc(Cl)cc2)c2nc(-c3ccc(Cl)cc3)nc(C(N)=O)c21,-13%,-13%
CCOc1ccccc1CNS(=O)(=O)c1ccc(-c2coc(C)n2)cc1,?,13%
COc1ccc(CCNC(=O)c2cnn(-c3ccc(F)cc3)c2C2CCN(C(=O)OC(C)(C)C)CC2)cc1OC,3%,23%
O=C1C=C(NCC23CC4CC(CC(C4)C2)C3)C2(CCCCC2)O1,-6%,-4%
CCOc1ccc(C2C(=O)N(C3CCCCCC3)CC(=O)N2CCc2ccc(OC)c(OC)c2)cc1OC (stereo not given),-22%,-13%
Cc1cccc(NC(=O)Cn2c(=O)oc3cc(S(=O)(=O)NCc4ccccc4)ccc32)c1,3%,210%[activator]
CCN(CC)CCCNC(=O)c1cc(-c2ccc(OC)cc2)nc2ccccc12,-1%,-13%
CCCS(=O)(=O)N1CC(=O)N(c2ccccc2C)C(C)(C(=O)NC2CCCCC2)C1 (stereo not given),-20%,-8%
Cc1c(Cl)cccc1-n1ncc2c1NC(=O)CC21C(=O)N(CC(N)=O)c2ccccc21 (stereo not given),12%,1%
COc1ccc(OCC(=O)NCc2ccc3c(c2)CCN3C(=O)c2ccccc2)cc1,-4%,-8%
O=C(O)CCCNC(=O)Cn1ccc2ccc(Cl)cc21,-2%,-11%
CCCCNC(=O)Cn1cnc2sc(C)c(S(=O)(=O)N3CCN(c4ccccc4OC)CC3)c2c1=O,-6%,-10%
Cc1ccc(CSC2=Nc3ccccc3C3=NC(CC(=O)NCc4cccs4)C(=O)N23)cc1 (stereo not given),13%,0%
O=C(O)CNC(=O)CCn1ccc2ccc(F)cc21,13%,-5%

# The list continues:
SMILES,StopGo FLuc,2A Renilla
CCc1cccc(C)c1NS(=O)(=O)c1ccc(-n2cccn2)cc1,9%,23%
Cc1cc(=O)oc2cc(OC(=O)[C@H](C)NC(=O)OC(C)(C)C)c(Cl)cc12,6%,0%
CCCCn1nc(C(=O)Nc2ccc3oc(C)nc3c2)c2ccccc2c1=O,0%,39%[activator]
Cc1ccc(C)c(NC(=O)c2ccc3c(c2)CCN3S(C)(=O)=O)c1,18%,11%
O=C(NCc1cccs1)c1ccc(Cn2c(SCc3ccc(F)cc3)nc3cccnc32)cc1,-12%,0%
CC(=O)c1c(C)nc2ccccc2c1C,23%,-12%[1.06 µM]
N#Cc1ccc(OCC(O)Cn2cnc3ccc(Br)cc3c2=O)cc1 (stereo not given),?,?
CC(CCc1ccccc1)NC(=O)c1cc(Cl)ccn1 (stereo not given),0%,-11%
COc1ccc(/C=C/c2nc3ccccc3[nH]c2=O)cc1,0%,0%
COc1cccc(-c2ocnc2C(=O)Nc2ccc(OC)cc2OC)c1,7%,6%
CC(NC(=O)CCC1CCCC1)c1ccccn1 (stereo not given),5%,-2%
COc1cc(CN(C(=O)c2ccccc2F)C2CCS(=O)(=O)C2)cc(OC)c1OC (stereo not given),-13%,-2%

# Copied from the list:
# CCCCn1nc(C(=O)Nc2ccc3oc(C)nc3c2)c2ccccc2c1=O in 2A Renilla has 39%[activator]
# COc1ccc(/C=C/c2nc3ccccc3[nH]c2=O)cc1 in 2A Renilla has 0%
# CC(NC(=O)CCC1CCCC1)c1ccccn1 (stereo not given) in 2A Renilla has -2%
